From PubChem
GC-B act – GC-B (human) receptor activation. P20594. HEK293-GC-B cells, CNP EC30, cGMP TR-FRET; 0% at EC30 CNP, 100% saturating CNP. activation, % at 10 µM. 0.11% of 370,000 active;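 active = activation at 10 µM reaching about 35% in either raw or pattern-adjusted values, limit read from the data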
NPR1 activator – GC-A (human) enzyme activation. P16066. activation, % at 10 µM. HEK293 GC-A cells, cGMP TR-FRET, EC30 ANP; 0% at EC30 ANP, 100% saturating ANP. 0.14% of 370,000 active; in the data active = activation above about 40%
Target sequence (P16066 whole entry, looked up): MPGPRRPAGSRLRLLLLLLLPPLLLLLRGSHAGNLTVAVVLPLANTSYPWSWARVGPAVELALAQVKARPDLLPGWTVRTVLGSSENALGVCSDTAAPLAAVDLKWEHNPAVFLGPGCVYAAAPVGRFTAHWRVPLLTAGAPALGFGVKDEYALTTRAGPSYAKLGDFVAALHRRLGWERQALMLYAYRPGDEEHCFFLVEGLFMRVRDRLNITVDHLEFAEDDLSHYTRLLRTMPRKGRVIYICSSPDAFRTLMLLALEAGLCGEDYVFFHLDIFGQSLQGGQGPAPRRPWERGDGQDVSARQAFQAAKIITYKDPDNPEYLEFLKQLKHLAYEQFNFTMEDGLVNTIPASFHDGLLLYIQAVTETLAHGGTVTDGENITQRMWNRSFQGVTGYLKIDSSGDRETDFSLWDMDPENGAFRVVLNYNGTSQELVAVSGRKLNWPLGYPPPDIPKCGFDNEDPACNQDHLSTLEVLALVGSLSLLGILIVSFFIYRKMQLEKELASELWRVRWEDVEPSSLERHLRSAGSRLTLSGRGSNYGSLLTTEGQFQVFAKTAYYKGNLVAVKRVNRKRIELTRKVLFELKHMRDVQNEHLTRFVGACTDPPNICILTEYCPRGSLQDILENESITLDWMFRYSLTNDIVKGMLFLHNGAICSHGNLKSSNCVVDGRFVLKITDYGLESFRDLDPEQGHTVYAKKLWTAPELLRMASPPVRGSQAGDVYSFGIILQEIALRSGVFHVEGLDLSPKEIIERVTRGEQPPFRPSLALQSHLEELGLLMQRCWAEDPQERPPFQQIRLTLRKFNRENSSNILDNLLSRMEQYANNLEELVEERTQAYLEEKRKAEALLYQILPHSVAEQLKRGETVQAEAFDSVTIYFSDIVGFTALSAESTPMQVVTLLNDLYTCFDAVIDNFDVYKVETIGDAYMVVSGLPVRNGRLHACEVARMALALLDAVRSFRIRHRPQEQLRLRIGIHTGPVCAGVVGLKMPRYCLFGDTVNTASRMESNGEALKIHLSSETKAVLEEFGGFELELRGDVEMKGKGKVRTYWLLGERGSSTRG
ADAM10 inh – inhibitors of human ADAM10 | 0.62% of 370,000 active | inhibition, % at 7 µM | O14672 | recombinant ADAM10, EDANS/DABCYL FRET peptide cleavage, 3 h;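 active = inhibition above a per-campaign cutoff equal to the mean of compounds falling between control-based bounds plus 3 SD, cut at about 20% in these data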;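 also: 0% = DMSO wells while the 100% control is not disclosed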
DDE Tn6 FP inh – inhibitors of Tn6 peptide binding to human fibrin DD(E); P02675; Fibrin DD(E) TRITC-Tn6 fluorescence polarization displacement; inhibition, % at 8.3 µM; 0.21% of 370,000 active; AID 720509;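 active = inhibition above a per-campaign cutoff: mean of compounds within control limits plus 3 SD, cut at about 15% in these data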;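 also: 0% = median of all compound wells on the plate and 100% = blocking peptide control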
ARFGAP1 inhibitor – inhibitors of rat ARFGAP1. Arfgap1-stimulated ARF1 GTP hydrolysis, GDP FP detection. 0.26% of 360,000 active. inhibition, % at 16.5 µM. AID 651572;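 active = inhibition above a per-plate limit, mean inhibition of low control wells plus 3 SD, cut at about 25% in these data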;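 also: 0% = DMSO wells with enzyme and 100% = wells lacking Arfgap1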
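Material – truncated rat Arfgap1 GAP domain · Buffer or medium – HEPES-based buffer, pH 7.5 · Reagent – human ARF1(Δ1-17)-GTP substrate · Dosing – 16.5 µM single point, 1.26% DMSO · Schedule – GTP hydrolysis reaction 2 h at 25 °C · Technique – GDP detection by fluorescence polarization · Benchmarks – No-Arfgap1 wells (100%) versus DMSO full-reaction wells (0%) · Repeats – single replicate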
GAA850 FXN act – activators of GAA850 frataxin (FXN) promoter; 0.56% of 360,000 active; AID 540364; activation, % at 6 µM; HEK293 lucGAA850 FXN promoter luciferase reporter, 24 h; percent of 10 µM SAHA response;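 active = activation above the average of all compounds screened plus 3 SD, cutoff fixed separately per campaign, cut at about 7.5% in these data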;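 also: 0% = DMSO wells and 100% = 10 µM SAHA wells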
HGIII-sPLA2 inh – Blocks human group III sPLA2 activity; inhibition, % at 12.2 µM; AID 743126; 0.56% of 370,000 active; QFRET BODIPY PC-A2 liposome hydrolysis, fluorescence;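 active = inhibition above mean plus 3 SD of compounds lying within the high and low control bounds, cut at about 19% in these data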;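 also: 0% = median of test compound wells and 100% = no enzyme DMSO wells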
rCAG binder – binds r(CAG) RNA repeats. r(CAG) RNA repeat, TO-PRO-1 dye displacement fluorescence. inhibition, % at 3 µM. 1.3% of 370,000 active. AID 651821;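 active = inhibition above the plate cutoff, the mean of all test compounds on that plate plus 3 SD, cut at about 35% in these data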;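 also: 0% = DMSO alone and 100% = 100 µM mitoxantrone as full dye displacement; higher means more dye released from RNA so lower well fluorescence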
ASAP1 GAP inh – ASAP1 ArfGAP inhibition | Q9ULH1 | ASAP1-stimulated ARF1 GTP hydrolysis, GDP FP detection | inhibition, % at 16.5 µM | 0.19% of 360,000 active; in the data active = inhibition above about 25%;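 also: 0% = vehicle with enzyme and substrate and 100% = no enzyme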
Numbers without * were called inactive.

| Compound | GC-B act | NPR1 activator | ADAM10 inh | DDE Tn6 FP inh | ARFGAP1 inhibitor | GAA850 FXN act | HGIII-sPLA2 inh | rCAG binder | ASAP1 GAP inh |
| --- | --- | --- | --- | --- | --- | --- | --- | --- | --- |
| Cc1onc(-c2ccccc2Cl)c1C(=O)NNC(=O)C1CCN(Cc2ccccc2)CC1 | -1.2 | -1.1 | 3.5 | -1.8 | -2.5 | 1.1 | -6.2 | -8.8 | 6.1 |
| CCN(C(=O)COc1cc(=O)n(CC)c2ccccc12)c1cc(Cl)ccc1OC | -8.8 | -12.6 | -0.6 | -3.5 | -4.2 | -2.4 | -4.7 | -1.0 | -12.4 |
| NC(=O)C1CCN(C(=O)c2ccccc2SCC(=O)NCC2CCCCC2)CC1 | 2.6 | 2.6 | -18.5 | 3.6 | -5.2 | 0.7 | -7.8 | 0.7 | -8.7 |
| COc1cc2cc(-c3ccc(O)cc3O)nc(C)c2cc1OC | -14.1 | -47.2 | 10.3 | -46.4 | 23.5 | 6.8 | -30.3 | 29.5 | 7.1 |
| OCc1cnc(SCc2ccccc2)n1Cc1ccccc1 | -6.8 | -1.0 | -0.8 | -0.2 | -4.4 | -1.2 | -3.8 | -7.1 | 5.0 |
| CCCC(C)c1nnc(NC(=O)c2cc(C(=O)OC)cc([N+](=O)[O-])c2)s1 (stereo not given) | 5.7 | 4.7 | 2.3 | -3.4 | -10.7 | -2.0 | -1.8 | 50.2* | -3.1 |
| CCCCN1C(=O)N(c2nnc(C(C)(C)C)s2)C(O)C1c1ccc(C)cc1 (stereo not given) | 7.8 | -3.5 | 9.4 | 1.7 | 4.3 | 1.5 | -0.2 | -10.4 | -5.3 |
| Cc1ccc(C)c(S(=O)(=O)N2CCN(C(=O)[C@@H](NC(=O)c3ccc(F)cc3)C(C)C)CC2)c1 | -4.8 | 2.9 | -9.5 | -1.1 | 2.7 | -4.0 | 10.5 | -0.1 | 10.9 |
| CSc1nc(N2CCOCC2)c2c3c(sc2n1)CCC3 | -5.2 | -1.9 | 0.9 | 3.3 | -7.0 | 2.5 | 3.9 | 9.0 | 0.3 |
| COc1ccc(Nc2cc(C(=O)NC3CCCC3)c3ccccc3n2)c(OC)c1 | 1.5 | 1.6 | -5.8 | -1.1 | 0.7 | -2.0 | 3.9 | -2.1 | 7.3 |

Reprinted at random: two compounds from above, in no set order.
| Compound | GC-B act | NPR1 activator | ADAM10 inh | DDE Tn6 FP inh | ARFGAP1 inhibitor | GAA850 FXN act | HGIII-sPLA2 inh | rCAG binder | ASAP1 GAP inh |
| --- | --- | --- | --- | --- | --- | --- | --- | --- | --- |
| COc1ccc(Nc2cc(C(=O)NC3CCCC3)c3ccccc3n2)c(OC)c1 | 1.5 | 1.6 | -5.8 | -1.1 | 0.7 | -2.0 | 3.9 | -2.1 | 7.3 |
| Cc1onc(-c2ccccc2Cl)c1C(=O)NNC(=O)C1CCN(Cc2ccccc2)CC1 | -1.2 | -1.1 | 3.5 | -1.8 | -2.5 | 1.1 | -6.2 | -8.8 | 6.1 |

(next part)
| Compound | GC-B act | NPR1 activator | ADAM10 inh | DDE Tn6 FP inh | ARFGAP1 inhibitor | GAA850 FXN act | HGIII-sPLA2 inh | rCAG binder | ASAP1 GAP inh |
| --- | --- | --- | --- | --- | --- | --- | --- | --- | --- |
| COc1ccc(NC2CS(=O)(=O)CC2NCc2ccccc2)cc1 (stereo not given) | 3.7 | -1.9 | -1.3 | 0.6 | 3.5 | 0.8 | 21.1* | 6.2 | 16.1 |
| CC(C)[C@@H]1COC(c2cccc(C3=N[C@H](C(C)C)CO3)c2)=N1 | 4.2 | 0.1 | 2.7 | -3.6 | -10.4 | 2.3 | 8.8 | -11.1 | -8.5 |
| CCN(c1ccc(NC(=O)COC(=O)c2ccc(S(=O)(=O)N3CCCC3)cc2)cc1)C(C)C | 4.7 | 2.0 | 1.6 | -8.9 | 7.0 | -1.7 | 0.2 | 0.8 | -10.4 |
| CCOc1cc(C(=O)N2CCN=C2SC)cc(OCC)c1OCC | 4.2 | -0.2 | 0.1 | 2.2 | 8.3 | -0.3 | -3.8 | -9.6 | 3.6 |
| COc1ccc(CNc2ncnc3cc(Cl)ccc23)cc1 | 6.6 | 5.5 | 5.5 | -1.4 | -7.4 | 0.5 | -0.6 | 2.1 | 12.1 |
| CCOc1ccc(/C=N/NC(=O)Cc2cccs2)cc1 | -2.5 | 0.6 | -5.1 | 1.2 | -1.1 | 5.0 | -0.5 | -4.9 | 2.8 |
| O=Cc1cccn1Cc1ccccc1[N+](=O)[O-] | -3.2 | 4.5 | -7.2 | -6.5 | -17.7 | -1.3 | 2.5 | -2.6 | 0.5 |
| CCC(NC(=O)C1C2C=CC(C2)C1C(=O)O)c1ccc(C)cc1 (stereo not given) | -2.3 | 0.4 | -3.1 | 2.1 | 10.9 | 0.9 | 2.7 | -1.4 | 6.5 |
| CC1(C)CC2CC(C)(CN2C(=O)c2ccc([N+](=O)[O-])cc2[N+](=O)[O-])C1 (stereo not given) | -1.5 | -0.2 | 4.8 | -2.0 | -10.2 | 0.0 | 0.2 | -5.1 | 4.5 |
| Cc1ccc(S(=O)(=O)Nc2nc(C)cc(NCCN)n2)cc1 | -2.5 | -0.3 | 1.1 | -7.6 | 0.9 | 1.1 | -6.7 | 3.7 | 2.7 |

10 of the compounds above, with two lines to a compound.
Sequence of screens: GC-B act | NPR1 activator | ADAM10 inh | DDE Tn6 FP inh | ARFGAP1 inhibitor | GAA850 FXN act | HGIII-sPLA2 inh | rCAG binder | ASAP1 GAP inh
> CCN(C(=O)COc1cc(=O)n(CC)c2ccccc12)c1cc(Cl)ccc1OC
    -8.8 | -12.6 | -0.6 | -3.5 | -4.2 | -2.4 | -4.7 | -1.0 | -12.4
> NC(=O)C1CCN(C(=O)c2ccccc2SCC(=O)NCC2CCCCC2)CC1
    2.6 | 2.6 | -18.5 | 3.6 | -5.2 | 0.7 | -7.8 | 0.7 | -8.7
> COc1cc2cc(-c3ccc(O)cc3O)nc(C)c2cc1OC
    -14.1 | -47.2 | 10.3 | -46.4 | 23.5 | 6.8 | -30.3 | 29.5 | 7.1
> OCc1cnc(SCc2ccccc2)n1Cc1ccccc1
    -6.8 | -1.0 | -0.8 | -0.2 | -4.4 | -1.2 | -3.8 | -7.1 | 5.0
> CCCC(C)c1nnc(NC(=O)c2cc(C(=O)OC)cc([N+](=O)[O-])c2)s1 (stereo not given)
    5.7 | 4.7 | 2.3 | -3.4 | -10.7 | -2.0 | -1.8 | 50.2* | -3.1
> CCCCN1C(=O)N(c2nnc(C(C)(C)C)s2)C(O)C1c1ccc(C)cc1 (stereo not given)
    7.8 | -3.5 | 9.4 | 1.7 | 4.3 | 1.5 | -0.2 | -10.4 | -5.3
> Cc1ccc(C)c(S(=O)(=O)N2CCN(C(=O)[C@@H](NC(=O)c3ccc(F)cc3)C(C)C)CC2)c1
    -4.8 | 2.9 | -9.5 | -1.1 | 2.7 | -4.0 | 10.5 | -0.1 | 10.9
> CSc1nc(N2CCOCC2)c2c3c(sc2n1)CCC3
    -5.2 | -1.9 | 0.9 | 3.3 | -7.0 | 2.5 | 3.9 | 9.0 | 0.3
> COc1ccc(Nc2cc(C(=O)NC3CCCC3)c3ccccc3n2)c(OC)c1
    1.5 | 1.6 | -5.8 | -1.1 | 0.7 | -2.0 | 3.9 | -2.1 | 7.3
> COc1ccc(NC2CS(=O)(=O)CC2NCc2ccccc2)cc1 (stereo not given)
    3.7 | -1.9 | -1.3 | 0.6 | 3.5 | 0.8 | 21.1* | 6.2 | 16.1

Carrying on.
| Compound | GC-B act | NPR1 activator | ADAM10 inh | DDE Tn6 FP inh | ARFGAP1 inhibitor | GAA850 FXN act | HGIII-sPLA2 inh | rCAG binder | ASAP1 GAP inh |
| --- | --- | --- | --- | --- | --- | --- | --- | --- | --- |
| COCCCNC(=O)CC(NS(=O)(=O)c1ccc(C)cc1)c1ccc(OC)cc1 (stereo not given) | 5.7 | -1.4 | -4.9 | 4.6 | -4.9 | 0.1 | 3.3 | -5.7 | 9.4 |
| Cc1oc(C(=O)Nc2ccc(O)cc2)cc1COc1ccccc1 | 1.9 | 1.1 | -1.5 | 3.4 | 1.5 | -0.2 | -21.3 | 6.0 | 1.4 |
| COc1ccc2[nH]c3c(C)c4ccncc4c(C)c3c2c1 | -7.0 | 6.1 | -17.6 | -10.7 | 3.4 | 12.1* | -35.6 | 37.4* | 0.3 |
| Cc1ccc(C(=S)N2CCCCCC2)cc1 | 1.6 | 2.3 | 0.2 | 5.5 | 1.2 | 1.2 | 5.0 | -0.6 | -9.2 |
| Cc1ccc(CNC(=O)CNC(=O)c2c(C)nn(C)c2Cl)cc1 | 5.0 | 0.7 | 1.4 | 6.5 | -4.0 | 0.0 | 5.4 | -1.7 | 8.4 |
| CCOc1cc(C)c(Cl)cc1S(=O)(=O)N(C)C | 1.4 | 0.2 | 6.6 | -4.7 | 7.3 | 0.5 | 1.6 | -2.9 | 10.8 |
| COc1ccc(OC)c(S(=O)(=O)N2CCN(c3ccc(F)cc3)CC2)c1 | 0.1 | -2.7 | -5.0 | -3.8 | 10.3 | 4.5 | 0.8 | -5.7 | 1.9 |
| CCOc1ccccc1C(=O)N(Cc1cccs1)C1CCS(=O)(=O)C1 (stereo not given) | -10.4 | -6.3 | 5.8 | 2.6 | -7.4 | -1.1 | 2.5 | 1.5 | -10.3 |

These rows are one share of the data (hit frequency here may not be typical).
